# From PubChem
# D2 agonist: agonists of human D2 dopamine receptor (beta-arrestin). 360,000 compounds, 0.084% hits. DiscoveRx PathHunter D2 beta-arrestin, luminescence, 90 min; 100% = 57 uM dopamine signal. activation, % (test concentration not listed). P14416; in the data active = activation above about 40%; inconclusive = about 15% to 40%; inactive = below about 15%; also: compound concentration not given in the record; the text of the record calls up to 30% inactive
# Target sequence (P14416 whole entry, looked up): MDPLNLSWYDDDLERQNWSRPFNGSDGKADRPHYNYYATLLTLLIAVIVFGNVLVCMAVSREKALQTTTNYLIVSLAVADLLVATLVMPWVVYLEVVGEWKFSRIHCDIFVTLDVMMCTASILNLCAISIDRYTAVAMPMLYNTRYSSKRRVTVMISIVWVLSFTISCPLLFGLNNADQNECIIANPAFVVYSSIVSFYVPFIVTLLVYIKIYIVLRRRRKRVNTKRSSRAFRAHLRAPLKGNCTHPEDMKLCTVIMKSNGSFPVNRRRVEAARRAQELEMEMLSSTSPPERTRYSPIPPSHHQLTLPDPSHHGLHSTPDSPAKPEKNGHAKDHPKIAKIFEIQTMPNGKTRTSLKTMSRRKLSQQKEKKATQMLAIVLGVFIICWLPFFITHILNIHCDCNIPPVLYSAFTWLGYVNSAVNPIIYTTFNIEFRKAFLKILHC
#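 DiscoveRx PathHunter D2 beta-arrestin cells (2,100/well) attached overnight, then compound-stimulated 90 min at 37 C in HBSS/10 mM HEPES/0.1% Tween-20 buffer; beta-galactosidase complementation read by luminescence after 1 h at ambient temperature. Dopamine 57 uM final (EC100) as control.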
# CtBP-E1A inh: CtBP/E1A binding inhibition | 340,000 compounds, 0.49% hits | activity change, % (test concentration not listed) | AlphaScreen GST-E1A/His-CtBP binding, 1536-well; stronger effect = lower value; control for the full effect not named in the record; in the data active means activity change below about -65%; inconclusive means about -30% to -65%; inactive means above about -30%; also: % is scaled to controls: 0 for no effect and ±100 for the full control effect
#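 GST-E1A and His-tagged CtBP (125 nM each as 5X stock) were preincubated with pin-transferred compound for 2 h at 37 °C in the dark, then glutathione donor and nickel acceptor beads were added for 1 h before AlphaScreen reading.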
# Six1-Eya2 inh: blocks human Six1 binding to Eya2; 360,000 compounds, 0.56% hits; AlphaScreen GST-Six1/His-Eya2 binding, biochemical; stronger effect = lower value; control for the full effect not named in the record; Q15475+O00167; activity change, % (test concentration not listed); in the data active = activity change below about -65%; inconclusive = about -30% to -65%; inactive = above about -30%; also: % is scaled to controls: 0 for no effect and ±100 for the full control effect
#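 Homogeneous AlphaScreen proximity assay pairing GST-Six1 with His-tagged Eya2 (added as 5X mix: 250 nM and 500 nM) in 50 mM Tris pH 8.0, 300 mM NaCl, 1 mM TCEP. Glutathione donor and nickel acceptor beads; 1 h, 37 °C, dark.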
# gsp agonist: agonists of gsp mutant (McCune-Albright syndrome); 340,000 compounds, 0.13% hits; gsp mutant cells, cAMP HTRF, 30 min; control for the full effect not named in the record; AID 624287; Potency, µM (doses to about 76.9 µM), for inactives: at the top dose activation (cAMP increase), most hits filed as activators; active = well fitted activation curve with a large enough effect; inconclusive = small, poorly fitted or top-dose-only effect, or another doubt; inactive = no such curve, though single readings can be large or run the other way; cell line not stated here;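 also: phosphodiesterase inhibitor Ro 20-1724 added with compounds to block cAMP breakdown; potency is read from the fitted curve at half-maximal effect; nearly all actives have a fitted effect of over 60% in size; about a fifth of the inactives were tested at one dose only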
#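 Cells stably selected in G418 were plated at 2000/well, grown 16-24 hr, then given compounds in DMSO with the PDE inhibitor […] (300 uM solution added) for 30 min at 37C; cAMP was read by HTRF.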
# gsp antag: antagonizes gsp, the McCune-Albright syndrome mutation. gsp-mutant cells, cAMP HTRF, 30 min; control for the full effect not named in the record. Potency, µM (top dose mostly 76.9 µM), inactives show at the top dose activity change, negative = inhibition, most hits filed as inhibitors. 340,000 compounds, 0.4% hits. AID 624288; active = falling curve of any shape with a large fitted effect; inconclusive = falling curve, mostly with a smaller effect; inactive = flat or rising curve; cell line not stated here;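 also: intracellular cAMP measured with PDE inhibitor Ro 20-1724 present during compound exposure; potency is read from the fitted curve at half-maximal effect; % is scaled to controls: 0 for no effect and ±100 for the full control effect; nearly all actives have a fitted effect of over 65% in size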
#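 HTRF cAMP read-out (cAMP-d2 plus anti-cAMP antibody-K in lysis buffer, 30 min RT). Before lysis, cells are exposed to compounds with […] for 30 min at 37C in DPBS containing Ca/Mg, BSA and Tween 20.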
# D2 PAM: potentiates the human D2 dopamine receptor allosterically. P14416. DiscoveRx D2 beta-arrestin cells, luminescence, 90 min; 100% = 57 uM dopamine signal. potentiation, % (no concentration beside the values). 360,000 compounds, 0.23% hits. AID 624464; active = potentiation of 50% or more; inconclusive = 30% to 50%; inactive = 30% or less;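 also: compound concentration not given in the record; tested on top of an EC20 dose of dopamine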
#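 PathHunter beta-arrestin assay in DiscoveRx D2 cells. Compounds were added with an EC20 of dopamine (50 nM final) for 90 min at 37 deg C. Luminescence was read 1 h after detection reagent, with 57 uM dopamine as the EC100 control.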
# * marks the source's active call; other numbers are inactive results; ? = inconclusive; . = no result given; [ ] = remark or other dose.
# Below each SMILES – D2 agonist	CtBP-E1A inh	Six1-Eya2 inh	gsp agonist	gsp antag	D2 PAM
COc1ccc(C(=O)N/N=C(\C)CC(=O)Nc2ccccn2)cc1OC
    0.8	-15	-2	-5%[15.4 µM]	.	4
O=S(=O)(c1cccc(F)c1)N1CCC(CO)(Cc2cccc(F)c2)CC1
    4.6	13	3	10%[15.4 µM]	-16%	-9
CCCCNC(=O)C1CCC(CNS(=O)(=O)c2cccc3nsnc23)CC1 (stereo not drawn)
    -2.0	-7	-1	?	-18%	-11
COc1ccccc1OCCSc1nnnn1-c1ccc(C)cc1
    -3.9	2	27	-52%	-21%	-6
COc1cccc(-c2nnc(SCC(=O)Nc3ccc(S(N)(=O)=O)cc3)n2C)c1
    -3.2	0	-5	21%	0%	-14
CC(C)N(C(=O)[C@H]1C[C@H](CC(=O)NC(C)(C)C)C(=O)N2CCc3c([nH]c4ccc(Cl)cc34)[C@]12C)C(C)C
    -0.9	-8	-11	.	-7%	.
CCNC(=O)C1(C)CCCN(C(=O)c2ccc(OC)c(F)c2)C1 (stereo not drawn)
    1.8	4	7	.	.	1
COc1ccc(C(=O)NCc2cccnc2)cc1C(=O)NCc1cccnc1
    -4.2	2	-5	.	4%	-5
O=c1cc(CO)oc(CN2CCC(Cc3ccccc3)CC2)c1O
    -4.1	1	-8	-10%	4%	-8
COc1ccc(C(=O)NC(C)CCc2ccccc2)cc1[N+](=O)[O-] (stereo not drawn)
    1.8	3	-3	-2%[15.4 µM]	-7%	-5
COc1cc(/C=N/OCC(=O)Nc2cc(C)cc(C)c2)ccc1OCc1ccc(Cl)cc1
    -0.2	0	7	-20%	7%	-3
COc1cccc2sc(NC(=O)c3ccc(S(=O)(=O)N4CCOCC4)cc3)nc12
    0.8	6	-6	-12%	-2%	-28
c1ccc2sc(NC3=NCN(C4CCCCCC4)CN3)nc2c1
    -0.1	2	-1	16%	?	-8
O=S(=O)(Nc1cccc(-c2cn3cccnc3n2)c1)c1ccc(Cl)cc1
    4.3	12	-30	-6%	-4%	?
C[C@@H]1CN([C@H](C)CO)C(=O)c2cc(NC(=O)C3CCCCC3)ccc2O[C@@H]1CN(C)Cc1ccc(C(F)(F)F)cc1
    0.5	2	-2	.	-9%	-4
O=C(CSc1ccc2ccccc2n1)c1ccccc1
    3.2	35	29	2%[15.4 µM]	3%	-5
CCN(CC)S(=O)(=O)c1cccc(NC(=O)CNc2cccc(S(=O)(=O)N3CCCC3)c2)c1
    -4.6	-6	-2	7%	-17%	18
COc1ccccc1OC(C)C(=O)Nc1ccc(S(=O)(=O)N2CCN(C)CC2)cc1 (stereo not drawn)
    -2.6	4	-2	18%[15.4 µM]	1%	0
CC1=C(C(=O)OC(C)C)C(c2ccc(C)o2)NC(=O)N1 (stereo not drawn)
    1.3	-3	1	-38%[inhibitor]	6%	-4
CCOC(=O)C1(CC2CC2)CCN(C(=O)c2cc(C)nc3ccc(CC)cc23)CC1
    -2.9	-7	3	-43%[inhibitor]	-11%	-2
Cc1cc(Cn2nc(C(=O)NCc3cccs3)cc2-c2ccccc2)on1
    0.1	.	-1	-5%	-25%	-4
CC(=O)Nc1ccc(N=Nc2ccc(O)cc2)cc1
    -3.4	-19	-19	7%	-3%	-6
COc1ccccc1NC(=O)CCSCCC(=O)Nc1ccccc1OC
    4.1	-4	3	-6%	2%	15
O=C(CN1CCCCC1)N1CCCc2ccccc21
    -3.8	9	2	-26%	2%	-4
CC(=O)Nc1ccc(S(=O)(=O)Nc2nnc(C(C)C)s2)cc1
    0.7	4	9	-22%	8%	4
CN(Cc1ccc(Cl)cc1)C(C(=O)NC1CCCCC1)c1ccnc2ccccc12 (stereo not drawn)
    5.4	-10	1	.	.	-10
COc1ccccc1NS(=O)(=O)c1cccc(NC(=O)C2CC2)c1
    1.3	-1	2	-23%	1%	-1
CC(NC(=O)Cn1cc(C(=O)C2CC2)c2ccccc21)c1ccccc1 (stereo not drawn)
    0.0	-5	-1	-40%[inhibitor]	7%	18
Cc1ccc(C(=O)NNC(=O)c2ccc(S(=O)(=O)N3CCCCC3)cc2)cc1
    -0.6	-13	15	-2%[15.4 µM]	-5%	-10
CCN(CC)CCNc1ncnc2c1sc1nc(N3CCCC3)c3c(c12)CC(C)(C)OC3
    0.5	-25	-15	11%[15.4 µM]	10%	-16
Cc1ccc(C)c(N(C)C(=O)c2coc(=O)c3ccccc23)c1
    -2.3	10	2	?	6%	-1
Fc1ccccc1Nc1nc(N2CCOCC2)nc(N2CCOCC2)n1
    -0.5	8	0	-17%	-7%	-4
COc1ccc(NC(=O)C2CC(=O)N(CCc3ccc(Cl)cc3)C2)cc1 (stereo not drawn)
    5.0	-1	-1	-1%[15.4 µM]	-2%	2
CC1CC(C)CN(C(=O)c2ccc3nc[nH]c3c2)C1 (stereo not drawn)
    -3.3	-4	-2	21%	6%	-1
COc1cccc(NC(=O)CN2CCN(S(=O)(=O)c3ccc(C(C)C)cc3)CC2)c1
    -0.8	1	-4	-18%	-2%	-11
Cc1ccc(S(=O)(=O)NC(=O)C2(C)CCN2C(=O)c2ccccc2CCc2ccccc2)cc1 (stereo not drawn)
    -0.7	5	1	.	.	0
CCOC(=O)C1CCN(C(=O)c2ccccc2)C(CC)C1=O (stereo not drawn)
    -3.9	12	6	2%	-3%	-17
CCOC(=O)C1CCN(C(=O)c2ccc3c(c2)OCO3)CC1
    -0.4	6	0	31%	8%	7
O=C(c1ccc(Br)c(S(=O)(=O)N2CCCCC2)c1)N1CCCCC1
    2.4	16	5	21%[15.4 µM]	-14%	-11
Cc1nn(CC(=O)NCCc2ccco2)c(=O)c2nn(-c3ccccc3)c(C)c12
    -0.3	.	-5	-18%	0%	-7
O=C(Nc1ccc2c(c1)CN(C(=O)Nc1ccc(F)cc1)CC2)c1ccccn1
    2.3	0	-8	-1%	.	-9
O=C(O)c1ccc(-c2nnn(Cc3cccc(C(F)(F)F)c3)n2)cc1
    -4.6	.	8	10%	-8%	-11
CC(=O)C1CCC2C3CC(C)C4=CC(=O)CCC4(C)C3C(=O)CC12C (stereo not drawn)
    -0.8	2	0	7%[15.4 µM]	-11%	-5
O=C(NC(=S)Nc1ccc2oc(=O)ccc2c1)c1cccc(Cl)c1
    -3.7	0	-9	-17%[15.4 µM]	-5%	-7
CC(=O)c1ccc(OCC(=O)NC2CCS(=O)(=O)C2)cc1 (stereo not drawn)
    0.9	8	6	-53%	3%	8
O=C(Cn1ncc(N2CCCC2)c(Cl)c1=O)c1ccc(Cl)cc1
    1.8	8	3	-22%	-7%	4
N#Cc1sc2nc3c(cc2c1N)CCCC3
    2.9	-9	2	15%	3%	13
O=C(c1ccccc1)N1CCN(C2CCCCC2)CC1
    -8.4	3	-3	-1%	-3%	-4
COc1ccccc1Nc1nc(Cl)nc(Nc2ccccc2OC)n1
    0.3	-10	0	17%[15.4 µM]	.	-4
Cc1onc(-c2c(Cl)cccc2Cl)c1C(=O)OCC(=O)c1ccccc1
    -4.0	25	8	-1%	1%	-5
CC1CN(C(=O)c2ccc(COCC(F)(F)F)o2)CC(C)O1 (stereo not drawn)
    -1.0	9	3	25%	-2%	4
CCCCn1c(N)c(N(CCOC)C(=O)c2ccc(COc3ccccc3)o2)c(=O)[nH]c1=O
    1.0	6	5	-25%	4%	0
O=C(O/N=C1/CCCc2occc21)c1ccc(Cl)cc1Cl
    -0.7	5	-7	2%[15.4 µM]	7%	-3
COc1ccc(CN(Cc2ccc(OC)cc2)C(=O)c2cccs2)cc1
    0.9	0	-3	-8%[15.4 µM]	-13%	-3
O=C(N/N=C/c1cc(Br)ccc1O)C(=O)Nc1ccccc1OC(F)(F)C(F)F
    -3.5	-14	-3	12%	5%	3
COc1cc(-c2nc(S(=O)(=O)c3ccc(C)cc3)c(N(C)C)o2)cc(OC)c1OC
    1.0	-14	-23	?	3%	-1
COc1ccc([C@@H]2[C@@H]3C(=O)N(C(C)(C)C)C(=O)[C@@H]3[C@]3(Cc4ccccc4)C(=O)N(c4cccc(Br)c4)C(=O)N23)cc1
    -0.4	-4	-1	.	1%	-7
O=C(C[n+]1cccc(CNC(=O)c2ccc(OC(F)F)cc2)c1)Nc1ccc(SC(F)F)cc1
    -3.8	-16	-10	?	-2%	-34
COC(=O)c1sc2ccccc2c1NC(=O)c1ccc(S(=O)(=O)N2CCCC(C)C2)cc1 (stereo not drawn)
    -2.1	0	9	-2%[15.4 µM]	12%	-8
CC(C)N=C1CCCC1C(=S)SSC(=S)C1CCCC1=NC(C)C (stereo not drawn)
    -9.4	-5	?	-40%[inhibitor]	.	-39

# (cont.)
# Below each SMILES – D2 agonist	CtBP-E1A inh	Six1-Eya2 inh	gsp agonist	gsp antag	D2 PAM
Cn1ccnc1C(=O)C1CCCN(Cc2cn[nH]c2-c2ccc(-c3ccccc3)cc2)C1 (stereo not drawn)
    2.9	0	1	7%[15.4 µM]	-1%	-11
CC1(C(=O)NNC(=O)c2cccc([N+](=O)[O-])c2)CC1(Br)Br (stereo not drawn)
    1.9	9	21	18%	-20%	-4
COc1ccccc1Nc1ncccc1[N+](=O)[O-]
    -0.9	?	?	?	-11%	-3
CSc1ccc(S(=O)(=O)N2CCC(C(=O)NCCc3ccccc3)CC2)cc1
    -2.9	8	5	16%	4%	-2
CC1=C(C#N)C(NC(=O)c2cccc(Cl)c2)(C(F)(F)F)C(=O)N1 (stereo not drawn)
    -2.0	-8	4	4%	-3%	-3
CCOc1ccc(NC(=O)c2cccc3c2C(=O)N(CC2CCCO2)C3)cc1 (stereo not drawn)
    -3.4	4	0	-1%	-16%	-2
COc1cc(C(=O)NC(C)C2CC3CCC2C3)ccc1OC(F)F (stereo not drawn)
    -2.6	-6	7	4%	-7%	-30
COc1ccc(CCN2CC(C(=O)NCc3nc(C)c(C)s3)CCC2=O)cc1 (stereo not drawn)
    -5.9	12	0	-14%	3%	-10
O=C(NCc1ccccn1)NC1CCCCC1
    -0.6	8	1	6%	6%	4
CCNc1c(NS(=O)(=O)c2ccc(C3CCCCC3)cc2)c(=O)oc2ccccc12
    4.2	-7	7	12%	-12%	-5
COC(=O)c1ccc(CN2CCC(n3nccc3NC(=O)C3CCCC3)CC2)cc1
    -6.1	6	-2	-31%[inhibitor]	4%	-47
CC(=O)N(C)c1ccc(OCC(O)CN(Cc2ccco2)S(=O)(=O)c2ccc(C)cc2)cc1 (stereo not drawn)
    1.5	-2	-2	-8%	?	16

# An excerpt from further up, as a working copy:
# Below each SMILES – D2 agonist	CtBP-E1A inh	Six1-Eya2 inh	gsp agonist	gsp antag	D2 PAM
Cn1ccnc1C(=O)C1CCCN(Cc2cn[nH]c2-c2ccc(-c3ccccc3)cc2)C1 (stereo not drawn)
    2.9	0	1	7%[15.4 µM]	-1%	-11
CC1(C(=O)NNC(=O)c2cccc([N+](=O)[O-])c2)CC1(Br)Br (stereo not drawn)
    1.9	9	21	18%	-20%	-4
